From PubChem
MT1-MMP promoter = MT1-MMP gene expression reporter suppression – cell-based, luciferase reporter, luminescence (AID 618); 0.62% of 87,000 active; MT1-MMP promoter luciferase reporter cells, luminescence; calls from a first round at 10 µM; hits with a dose series show EC50 in µM;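 active means over half of the reporter light lost at 10 µM or EC50 under 50 µM; inactive means the rest and hits that failed the dose series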;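 further: actives suppress MT1-MMP promoter-driven transcription so potencies describe inhibitors; HT1080 fibrosarcoma cells; overnight exposure; toxic or luciferase-blocking compounds were not removed from the actives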
Hsc70 = small molecules displacing fluorescent ligand from Hsc70 – biochemical, fluorescence polarization, primary screen (AID 568); 83,000 tested, under 10 active; displacement, % at 20 µM, or IC50 in µM where a hit was titrated; Hsc70 fluorescence polarization, probe displacement; higher % means a stronger effect; strong numbers were not always called active;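 active means displacement above 50% without optical interference and an IC50 on retest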;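 further: ATPase domain with a fluorescein-tagged ATP probe; 0% = vehicle and 100% = excess ADP; read after one hour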
WNV NS2B-NS3 inh = inhibitors of West Nile virus NS2B-NS3 protease. P06935. WNV NS2B-NS3 protease, fluorogenic substrate Ex360/Em465; stronger effect = lower value. z-score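 (tested at a level between 10 and 100 µM)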. 0.18% of 65,000 active. AID 577;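 active means z-score at -3 or under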;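 further: score is relative to mean and spread of the compound wells of a plate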
Target sequence (P06935 1371-1501 limits assumed): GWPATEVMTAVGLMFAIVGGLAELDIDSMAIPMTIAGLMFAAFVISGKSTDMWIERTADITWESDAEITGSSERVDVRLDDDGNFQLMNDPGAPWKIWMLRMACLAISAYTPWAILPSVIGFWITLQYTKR
Target sequence (P06935 1502-1679 limits assumed): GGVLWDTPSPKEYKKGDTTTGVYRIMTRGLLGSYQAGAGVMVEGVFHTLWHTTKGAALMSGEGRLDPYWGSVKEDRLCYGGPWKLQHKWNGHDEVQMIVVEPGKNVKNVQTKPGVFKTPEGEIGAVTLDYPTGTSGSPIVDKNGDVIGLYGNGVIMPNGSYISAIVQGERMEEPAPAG
The depositor's hits bear a star; i = inactive; x = no result given. Outcome played no part in choosing rows (roughly 0.8% active in at least one column).

molecule | MT1-MMP promoter | Hsc70 | WNV NS2B-NS3 inh
O=C(NCCCN1CCC(Cc2ccccc2)CC1)C1CC(=O)N(C2CCCCCC2)C1 (stereo not given) | i | -0.8% | x
Cn1c(CC(=O)Nc2ccc(Cl)c(Cl)c2)nnc1SCC(=O)Nc1nccs1 | i | -5.7% | x
CN(c1ccc(C(=O)NC2CC2)cc1)S(=O)(=O)c1ccccc1 | i | 3.0% | 0.54
COc1ccc2nc3c(cc2c1)c(NC(=O)c1cccs1)nn3CC(C)C | i | 2.0% | -0.57
Cc1nn(C)c(C)c1/C=N/O | i | 2.7% | x
CCN(CCNC(=O)CCCn1nc(C)n2c(cc3sccc32)c1=O)c1ccccc1 | i | -0.4% | 0.21
COCCCn1c(SCC(=O)Nc2ccccc2)nnc1-c1ccncc1 | i | -10% | x
Cn1cccc1Cc1nnc(SCC(=O)Nc2ccccc2)n1-c1ccc(F)cc1 | i | 0.1% | 0.76
Cc1ccccc1CNC(=O)c1ccccc1C(=O)O | i | -0.8% | x
COC(=O)C1C(=O)C2=C(CC1C)NC(C)=C(C(=O)OC1CCCC1)C2c1ccc(N(C)C)cc1 (stereo not given) | i | -0.7% | -0.15
CN(C)CCNc1nc(-c2ccccc2)c2c(c1C#N)CC(C)(C)OC2 | i | 1.3% | x
COC(=O)Cn1ncc2c3ccccc3n(Cc3ccccc3)c2c1=O | i | 1.7% | x
Cc1cccc(OCC(=O)N2CCN(C(=O)CCC3CCCC3)CC2)c1 | i | -3.7% | -1.9
Cc1ccc(-c2nn(C)c(=O)c3ccccc23)cc1S(=O)(=O)NCCO | i | 7.0% | 2.4
Cc1noc(C)c1S(=O)(=O)Nc1ccc(C(=O)NCc2ccccc2)cc1 | i | -3.0% | -0.96
CC(=O)Cn1c(CN2CC(C)CC(C)C2)nc2c1c(=O)n(C)c(=O)n2C (stereo not given) | i | 3.0% | -0.18
CCCCNCCOCCOc1ccc(F)cc1 | i | -2.6% | -0.52
Cc1cc(C(F)F)n2nc(C(=O)NCc3ccccc3F)nc2n1 | i | -0.2% | 2
COc1nc(-c2ccccc2)cc(-c2ccc(OC)c(OC)c2)n1 | i | -2.2% | 0.78
Cc1cc(N2CC(C(=O)O)CC2=O)ccc1Br (stereo not given) | i | -1.8% | -0.46

Whole records, looked up by structure. Screens in order: MT1-MMP promoter | Hsc70 | WNV NS2B-NS3 inh
`Cc1noc(C)c1S(=O)(=O)Nc1ccc(C(=O)NCc2ccccc2)cc1` is listed with i | -3.0% | -0.96
`Cc1nn(C)c(C)c1/C=N/O` is listed with i | 2.7% | x

Next section:
molecule | MT1-MMP promoter | Hsc70 | WNV NS2B-NS3 inh
Cc1ccc(NC(=O)CCCCCC2NC(=O)NC2C)cc1 (stereo not given) | i | -2.1% | 0.17
COc1cc(C(=O)O)ccc1OC(C)=O | i | 7.8% | -0.22
COc1ccc(CC(=O)Nc2ccc(S(=O)(=O)Nc3cc(C)on3)cc2)cc1 | i | 0.2% | x
CC1(C)C(c2ccc(Cl)cc2)=[N+]([O-])C2(CCCC/C2=N\O)N1O (stereo not given) | i | 83% | -0.86
O=C(c1ccccc1)N1CCN(c2ccc(Cl)cc2)CC1 | i | 0.4% | -1.2
Cn1c(=O)c(-c2ccccc2N)nc2ccccc21 | i | -2.7% | 0.07
CCOC(=O)C1=C(N)OC2=C(C(=O)CC(C)(C)C2)C1c1cccnc1 (stereo not given) | i | 0.1% | -0.16
COc1ccc(Br)cc1S(=O)(=O)N1CCCC1 | i | -1.4% | x
CC(=O)c1c(C)[nH]c(C(=O)OCC(=O)Nc2cc(C)on2)c1C | i | 0.9% | 0.0064
O=C(CNS(=O)(=O)c1cccs1)N1CCN(c2ccccn2)CC1 | i | 1.4% | 1.4
COC(=O)C1=[N+]([O-])OC(C(=O)OC)C1c1c[nH]c2ccccc12 (stereo not given) | i | 5.3% | 0.21
CCCCC(=O)NN(C)c1nc(-c2ccccc2)nnc1C(F)(F)F | i | -1.3% | x
Cc1c(Cl)cccc1N(CC(=O)NC1CCCCC1)S(C)(=O)=O | i | 8.1% | -0.94
CCn1c2ccccc2c2nnc(SCC(=O)N3CC(C)OC(C)C3)nc21 (stereo not given) | i | -2.6% | -0.17
CC(=O)n1nc(-c2ccco2)nc1N | i | -1.2% | 1.4
Cc1cccn2c(=O)c3cc(C#N)c(=N)n(Cc4cccnc4)c3nc12 | i | 13% | 1.5
Cc1cc(NC(=O)CCC(=O)N(Cc2ccco2)C2(C(=O)NC3CCCCC3)CCN(C)CC2)no1 | i | -1.3% | 0.78
O=C(COC(=O)c1ccc2c(c1)OCO2)NCc1ccc(Cl)cc1 | i | 0.8% | -0.93
CCc1nc(SCc2ccc(F)cc2)[nH]c(=O)c1C#N | i | -3.3% | x
CCS(=O)(=O)c1ccc2oc(Nc3ccccc3C)nc2c1 | i | 1.2% | 0.71
CCOc1ccccc1NC(=O)CSc1nnc2c(CC)c(C)nc(N)n12 | i | 4.0% | -0.24
Cc1cccc(-n2c(Cc3cc(=O)[nH]c(=O)[nH]3)nnc2SCC(=O)NCC2CCCO2)c1 (stereo not given) | i | 0.4% | 1.2
CSc1cccc(NC(=O)CN(c2cc(C)ccc2C)S(C)(=O)=O)c1 | i | 2.0% | -0.12
COc1ccc(NC(=O)CN2CCC(NC(=O)C3CCCCC3)CC2)cc1 | i | 4.4% | 0.46
CC(Oc1ccccc1Cl)C(=O)N(Cc1ccco1)C1CCS(=O)(=O)C1 (stereo not given) | i | -0.3% | -0.96
COc1ccc(Oc2nc3c(c(=O)n(C)c(=O)n3C)n2Cc2cccc(OC)c2)cc1 | i | 3.8% | 0.73
CSc1nc(-c2ccccc2)nc(N)c1C(C)=O | i | 1.6% | x
Cc1ccc(NS(=O)(=O)c2ccc(C(=O)N3CCCN(C)CC3)cc2)cc1 | i | -4.6% | -0.88
O=C(CC1Oc2ccccc2NC1=O)NCCCN1CCCC1=O (stereo not given) | i | 1.9% | -0.57
Cc1ccc(C)c(NC(=O)CCN2CC(C)OC(C)C2)c1 (stereo not given) | i | -8.1% | -0.02
Cc1ccc(-c2[nH]c3ccccc3c2C(C[N+](=O)[O-])c2ccco2)cc1 (stereo not given) | i | -0.4% | x
O=C(Cn1c(=O)oc2cc(S(=O)(=O)N3CCc4ccccc43)ccc21)NC1CCCC1 | i | 2.8% | -0.14
COc1ccc(N2CCN(c3ccc(N)cc3C#N)CC2)cc1 | i | -1.6% | -1.4
CCOC(=O)C1CCN(S(=O)(=O)c2c(C)n[nH]c2C)CC1 | i | -0.9% | 0.43
Cc1onc(-c2ccccc2)c1C(=O)Nc1ccc2c(C)cc(=O)oc2c1 | i | -1.5% | -0.28
COc1ccc(NC(=O)CSc2nncn2C)cc1OC | i | -0.6% | x
CCCCCn1c2nc3ccccc3nc2c2c(=O)n(CC(C)C)cnc21 | i | 4.0% | -0.04
Cc1ccccc1NC(=O)Nc1ccccc1C(=O)NCc1ccccc1 | i | -3.2% | x
Nc1cccc2nc3ccccc3cc12 | 22µM* | 2.1% | x
CC12CCC(C(=O)Nc3cccnc3)(CC1=O)C2(C)C (stereo not given) | i | -0.1% | 0.87
O=C1NCCN1Cc1ccccc1F | i | -3.0% | -0.08
OCCn1c(SC2CCCCC2)nc2ccccc21 | i | -3.4% | 0.17
COc1ccc(CCNC(=O)Cn2c(=O)cnc3ccccc32)cc1 | i | 1.0% | -0.68
Fc1ccc(C2CC(c3ccccc3)Nc3ncnn32)cc1 (stereo not given) | i | 1.6% | -0.82
CC(=O)NC(CCS(C)(=O)=O)C(=O)Nc1c(C)cccc1C (stereo not given) | i | 3.1% | 1.6
O=C(CN1CC(=O)Oc2ccccc21)OCC(=O)c1cccc(Br)c1 | i | 1.2% | 6.2
O=C(Oc1ccc2c(c1)CCC2)N1CCOCC1 | i | 5.8% | 0.56
O=C(Oc1ccc2c(c1)OCO2)c1ccncc1 | i | 8.5% | 0.24
CC(C)(CO)Nc1nc(Nc2ccccc2)nc(Nc2ccccc2)n1 | i | 3.0% | x
COc1cc2c(cc1OC)C(C(=O)Nc1ccc3c(c1)OCCO3)C1c3ccccc3CCN1C2=O (stereo not given) | i | -5.8% | 0.55
O=C(CSc1nccn1-c1ccc(F)cc1)Nc1ccc2c(c1)OCO2 | i | 6.4% | -0.75
Cc1ccccc1OCCN1C(=O)NC2(CCc3ccccc32)C1=O (stereo not given) | i | 0.1% | -0.42
CCOc1ccc(Cc2nn[nH]n2)cc1 | i | -0.2% | -0.5
CCOC(=O)C(NCc1ccccc1)(NC(=O)c1ccccc1)C(F)(F)F (stereo not given) | i | -0.3% | x
Nc1nc(SCC(=O)Nc2ccccc2Sc2ccc(Cl)cc2)n[nH]1 | i | -0.2% | x
COC(=O)C1=C2SC(C)C(=O)N2C(N)=C(C#N)C1c1cc(OC)c(OC)c(OC)c1 (stereo not given) | i | -0.9% | 0.45
COc1ccc(OC)c(C(c2nnnn2CC2CCCO2)N2CCN(C3CCCC3)CC2)c1 (stereo not given) | i | -3.7% | 1.6
COc1ccc(S(=O)(=O)n2ccc(C)n2)cc1C | i | 2.6% | x
CCOC(=O)C1CCN(c2ncnc3c2cnn3-c2ccccc2)CC1 | i | -1.5% | -0.92
CCCC(c1nnnn1C1CCCC1)N1CCN(C(=O)c2ccco2)CC1 (stereo not given) | i | -0.9% | -1.1

A different layout for some results above:
CCOC(=O)C1CCN(c2ncnc3c2cnn3-c2ccccc2)CC1
  MT1-MMP promoter = i	Hsc70 = -1.5%	WNV NS2B-NS3 inh = -0.92
Nc1nc(SCC(=O)Nc2ccccc2Sc2ccc(Cl)cc2)n[nH]1
  MT1-MMP promoter = i	Hsc70 = -0.2%	WNV NS2B-NS3 inh = x
O=C(Oc1ccc2c(c1)OCO2)c1ccncc1
  MT1-MMP promoter = i	Hsc70 = 8.5%	WNV NS2B-NS3 inh = 0.24
CC(=O)NC(CCS(C)(=O)=O)C(=O)Nc1c(C)cccc1C (stereo not given)
  MT1-MMP promoter = i	Hsc70 = 3.1%	WNV NS2B-NS3 inh = 1.6

Further results follow.
molecule | MT1-MMP promoter | Hsc70 | WNV NS2B-NS3 inh
Cc1ccc(S(=O)(=O)NC(=O)NCc2ccc(Cl)cc2)cc1 | i | 2.2% | x
CCc1nnc(NC(=O)CSc2nnc(-c3ccoc3C)n2-c2cccc(C)c2)s1 | i | -3.9% | -1.1
COC(=O)c1cc2c(cc1NC(=O)CSCCc1ccccn1)OCO2 | i | 22% | -0.46
Nc1nc2ccc(C(=O)Nc3ccccc3)cc2s1 | i | -6.3% | 0.74
COC1CCCCC1NS(=O)(=O)c1ccc(Cl)cc1 (stereo not given) | i | -0.3% | -0.13
CCOc1ccccc1NC(=O)c1ccc(S(=O)(=O)N2CCOCC2)cc1 | i | -1.8% | -1.1
O=S(=O)(c1ccc(Cl)s1)N1CCN(C/C=C/c2ccccc2)CC1 | i | 143% | 0.36
O=S(=O)(c1cccc(-c2nnc(-c3cccnc3)o2)c1)N1CCCCC1 | i | 0.7% | 1.6
O=C(COc1ccccc1)Nc1ccc(Cl)c(-c2nc3ncccc3o2)c1 | i | -8.2% | 0.59
O=C(CCCn1ncn2c(cc3occc32)c1=O)N1CCc2ccccc2C1 | i | 5.3% | -0.48
CCOC(=O)c1ccc(NC(=O)CC2Sc3ncnn3C2=O)cc1 (stereo not given) | i | -10% | 0.83
O=C(Cc1nc2ccccc2[nH]1)NCc1ccco1 | i | -4.6% | 0.02
CN(C)C(=O)N1CCN(C(=O)N2CCOCC2)CC1 | i | -0.2% | x
COC(=O)C1CCN(C(=O)COc2cc3sc(C)nc3c3sccc23)CC1 | i | -3.4% | -0.93
CC(C)(C)OC(=O)N1CCN(c2ccc(NC(=O)c3cc4ccccc4oc3=O)cc2)CC1 | i | 1.8% | 0.57
Cc1ccc(-n2c(N)c(C(N)=O)sc2=S)c(C)c1 | i | 1.3% | 0.24
O=C(c1ccncc1)N1CCN(C(=O)c2ccco2)CC1 | i | 0.8% | 0.09
O=C(NCCc1ccc(Cl)cc1)C1CCN(c2cnccn2)CC1 | i | -0.7% | 0.04
CC(=O)c1c(O)cc(C)n(Cc2ccccc2)c1=O | i | 4.7% | 1.2
COc1ccc(CCNC(=O)c2nnn(-c3ccccc3OC)c2N)cc1OC | i | -1.5% | 1.3
Cc1cc(C)c2nc(C(F)(F)F)nc(N3CCN(C(=O)c4ccco4)CC3)c2c1 | i | -1.0% | -0.51
O=C(Nc1cccc(O)c1)c1ccc(Br)c(S(=O)(=O)N2CCCCC2)c1 | i | 5.1% | 0.77
c1ccc2c(c1)c1c3n2CCNC3CCC1 (stereo not given) | i | 1.7% | -0.21
C(=N\c1nccs1)/c1cccnc1 | i | 4.6% | 0.3
COc1ccc(C2CC(=O)C(C=NCCO)=C(O)C2)cc1OC (stereo not given) | i | 3.8% | 0.51
N#Cc1c(N)nc(SCC(=O)C23CC4CC(CC(C4)C2)C3)c(C#N)c1-c1ccc(Cl)cc1 | i | -0.8% | x
CCOC(=O)CNC(=O)c1cn(CC(C)C)c(=O)c2cc(OC)c(OC)cc12 | i | -0.2% | -0.52
c1cncc(-c2nc3ccccc3o2)c1 | i | -14% | -0.85
